D2 potentiator = human D2 receptor positive allosteric modulation | P14416 | DiscoveRx D2 beta-arrestin cells, luminescence, 90 min; 100% = 57 uM dopamine signal | potentiation, % (test concentration not listed) | actives 0.23% (n = 360,000) | AID 624464; active = potentiation of 50% or more; inconclusive = 30% to 50%; inactive = 30% or less;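 further: compound concentration not given in the record; tested on top of an EC20 dose of dopamine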
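D2 cells co-treated with compound plus 50 nM dopamine (EC20) for 90 min at 37 deg C to detect potentiation. Beta-arrestin recruitment was read as enzyme-fragment luminescence after 1 h at ambient temperature. Full response was set by 57 uM dopamine.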
Six1-Eya2 blk = blocks human Six1 binding to Eya2; AlphaScreen GST-Six1/His-Eya2 binding, biochemical; active compounds read low; control for the full effect not named in the record; actives 0.56% (n = 360,000); activity change, % (no concentration beside the values); in the data active = activity change below about -65%; inconclusive = about -30% to -65%; inactive = above about -30%; further: on the % scale 0 is the no-effect control and ±100 the full control effect
Target sequence (O00167 whole entry, looked up): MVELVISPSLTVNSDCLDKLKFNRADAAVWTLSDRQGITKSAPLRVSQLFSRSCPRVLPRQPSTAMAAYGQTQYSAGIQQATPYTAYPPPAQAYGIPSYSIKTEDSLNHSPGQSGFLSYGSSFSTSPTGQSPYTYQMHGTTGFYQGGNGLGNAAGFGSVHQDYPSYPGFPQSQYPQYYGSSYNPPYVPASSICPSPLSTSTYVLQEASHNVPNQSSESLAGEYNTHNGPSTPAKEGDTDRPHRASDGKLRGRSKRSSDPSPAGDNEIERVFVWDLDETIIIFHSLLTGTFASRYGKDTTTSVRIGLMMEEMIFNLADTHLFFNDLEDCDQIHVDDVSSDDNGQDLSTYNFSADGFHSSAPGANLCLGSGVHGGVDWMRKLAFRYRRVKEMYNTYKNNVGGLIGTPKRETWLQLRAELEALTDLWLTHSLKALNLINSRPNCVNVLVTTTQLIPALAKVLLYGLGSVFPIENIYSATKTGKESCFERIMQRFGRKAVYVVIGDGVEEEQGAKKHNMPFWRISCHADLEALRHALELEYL
Target sequence (Q15475 whole entry, looked up): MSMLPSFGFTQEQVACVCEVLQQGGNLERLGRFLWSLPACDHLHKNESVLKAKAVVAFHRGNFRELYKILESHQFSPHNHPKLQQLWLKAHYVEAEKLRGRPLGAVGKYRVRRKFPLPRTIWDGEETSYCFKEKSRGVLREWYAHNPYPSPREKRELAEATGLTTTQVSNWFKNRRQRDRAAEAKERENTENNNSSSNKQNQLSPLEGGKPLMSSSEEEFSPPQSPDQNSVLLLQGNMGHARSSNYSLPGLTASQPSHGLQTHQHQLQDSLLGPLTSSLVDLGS
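Compounds are tested against tagged Six1 and Eya2 proteins bridged by glutathione donor and nickel acceptor beads; after a one-hour incubation at 37 °C without light, AlphaScreen emission is recorded.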
PINK1 modulator = PINK1 expression modulation; actives 0.2% (n = 410,000); AID 624263; PINK1 immunofluorescence, high-content cytometry, 24 h; Potency, µM (series often up to 76.6 µM), for inactives: at the top dose activation (PINK1 increase), most hits filed as activators; active = well fitted activation curve with a large enough effect; inconclusive = small, poorly fitted or top-dose-only effect; inactive = flat fitted curve, though single readings scatter; cell line not stated here;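 further: potency means the concentration at half of the fitted maximal effect; % of control where 0% means no effect; nearly all actives have a fitted effect of over 65% in size; a mitochondrial uncoupler was the plate control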
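Cells are seeded, rested 12 hours, then given compound at five concentrations or DMSO for 24 hours. After fixation, blocking and antibody staining, PINK1 amount and mitochondrial localization are scored; CCCP serves as control.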
TRPML1 agonist = activates the human TRPML1 channel; TRPML1-expressing cells, Ca2+ dye fluorescence, FDSS; host cell line not named in the record; reference of the full effect not given here; AID 624414; activation, % (concentration not given with the values); Q9GZU1; actives 0.12% (n = 410,000); in the data active = activation above about 50%; inconclusive = about 30% to 50%; inactive = below about 30%; further: 0% is about no effect; the text of the record puts the active cut at 80%
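In this qHTS format, compounds were pin-transferred onto Ca8-dye-loaded TRPML1-DL cells induced with Tet overnight, and intracellular Ca2+ fluorescence was recorded kinetically for 110 s after a 10 s baseline. A subsequent 4uM final 54-4 (EC80) addition followed by a second 110 s read served as the antagonist phase.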
CtBP-E1A inh = blocks the CtBP interaction with E1A; activity change, % (no concentration beside the values); actives 0.49% (n = 340,000); AlphaScreen GST-E1A/His-CtBP binding, 1536-well; active compounds read low; control for the full effect not named in the record; in the data active means activity change below about -65%; inconclusive means about -30% to -65%; inactive means above about -30%; further: on the % scale 0 is the no-effect control and ±100 the full control effect
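Steps: dispense buffer (Tris pH 8.0, NaCl 300 mM, TCEP 1 mM, BSA, Tween 20); add 5X protein mix (GST-E1A, His-CtBP, 125 nM each); pin 23 nL compound; 2 h at 37 °C, dark; add 5X beads (50 ug/mL); 1 h; read.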
D2 ag = agonists of human D2 dopamine receptor (beta-arrestin) | DiscoveRx PathHunter D2 beta-arrestin, luminescence, 90 min; 100% = 57 uM dopamine signal | AID 624465 | activation, % (no concentration beside the values) | P14416 | actives 0.084% (n = 360,000); in the data active = activation above about 40%; inconclusive = about 15% to 40%; inactive = below about 15%; further: compound concentration not given in the record; the text of the record calls up to 30% inactive
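DiscoveRx PathHunter D2 beta-arrestin cells (2,100/well) attached overnight, then compound-stimulated 90 min at 37 C in HBSS/10 mM HEPES/0.1% Tween-20 buffer; beta-galactosidase complementation read by luminescence after 1 h at ambient temperature. Dopamine 57 uM final (EC100) as control.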
The depositor's hits bear a star; ? = inconclusive; . = not tested or not shown; & = joins results of further samples; [ ] = another dose, or the depositor's remark.

canonical_smiles	Six1-Eya2 blk	CtBP-E1A inh	TRPML1 agonist	D2 potentiator	D2 ag	PINK1 modulator
COc1ccc(-c2nnc(C3CCN(S(=O)(=O)c4ccccc4)CC3)o2)cc1	0	1	0.5	-2	-2.4	4.7%
Cc1ccc(N(C(=O)c2cccs2)C2C=CS(=O)(=O)C2)cc1 (configuration not stated)	3	4	-0.5	-3	-7.4	1.8%
CC(C)CCOc1ccc(C(=O)N2CCN(c3ncccn3)CC2)cc1	6	0	-0.4	-11	0.2	1.7%
CCN(CC)C(=O)CP(=O)(c1ccccc1)c1ccccc1	13	9	1.5	-6	-2.4	1.9%
O=C(Nc1ccccc1C(=O)NCc1ccco1)Nc1cccc2ccccc12	-19	.	3.6	-3	0.9	-1.7%
C[C@@H]1C=C[C@](Cc2ccccc2)(C(=O)NCC2CC2)N1C(=O)c1ccccc1	-3	2	-0.1	-4	5.2	0.2%
Cc1ccc(NCc2nnc3n2CCCCC3)c(C)c1	3	0	-0.3	-2	1.0	3.3%
CCN(CC)CC#CCC(O)(c1ccccc1)c1ccc(Br)cc1 (configuration not stated)	-4	.	2.4	-20	0.0	8.0%
CS(=O)(=O)C1=NN2C(=N)/C(=C\c3ccc(OCCOc4ccccc4)cc3)C(=O)N=C2S1	-14	0	-0.1	0	-3.9	3.3%
CCOC(=O)c1nnc2c(Br)c(-c3ccccc3)nn2c1C	?	?	8.3	-22	-3.5	-1.2%
Cc1ccc(CNS(=O)(=O)c2ccc(C)s2)cc1	2	.	2.2	1	-0.4	1.0%
CC(C)(C)c1cc(CCC(=O)NNC(=O)c2ccco2)cc(C(C)(C)C)c1O	-8	-4	1.2	-8	-4.5	6.0%
O=C(CN1CCN(S(=O)(=O)c2ccc(Br)cc2)CC1)Nc1ccccc1C(=O)c1ccccc1	-7	7	0.5	-8	-2.5	-1.6%
CC(=O)Nc1ccc(SCCC2CCCCN2C)cc1 (configuration not stated)	1	-1	1.0	-8	-3.1	-2.3%
CN(CC(=O)NCCc1ccccc1)CC(=O)Nc1cccc(F)c1	-7	3	-0.1	-1	-1.1	0.9%
CC(=O)Nc1cc(NC(C)=O)ncn1	-4	5	-0.3	0	-2.8	1.6%
O=C(Nc1ccc(N2C(=O)c3cccc4cccc(c34)C2=O)cc1)c1ccc(N2CCCCC2)c([N+](=O)[O-])c1	5	-6	0.8	-17	1.1	1.0%
c1nc(Nc2ccc(N3CCOCC3)cc2)c2ccsc2n1	-11	-3	0.6	0	-0.9	0.8%
O=C(/C=C/c1c(F)cccc1Cl)N1CCOCC1	-4	-2	-0.6	-1	-1.9	0.0%
CCOC(=O)C1=C(N)Oc2ccc3ccccc3c2C1c1ccc(O)cc1 (configuration not stated)	-1	4	1.6	-1	-3.0	1.8%
CCOC(=O)C1CCCN(C(=O)c2cc(-c3ccncc3)nc3ccccc23)C1 (configuration not stated)	-3	-2	1.5	9	-4.0	20%
C=CCn1c(C)cc(C(=O)CSc2nc3ccccc3[nH]2)c1C	-12	-8	0.5	-5	2.2	6.2%[38.3 µM]
CCNc1nc(NC#N)nc(SCC(=O)OCC)n1	-4	5	-1.2	-5	0.2	0.4%
CCN(CC)c1ccc(C(=O)OCC(=O)c2ccco2)cc1	-1	3	-1.1	-5	-4.2	2.5%
COc1ccc(C2C(C(=O)NCc3ccccn3)c3ccccc3C(=O)N2C)cc1OC (configuration not stated)	1	5	-0.8	-5	-4.1	-2.6%
COc1ccc(C(CNc2ccc(S(=O)(=O)N3CCN(C)CC3)cc2[N+](=O)[O-])N(C)C)cc1 (configuration not stated)	2	-7	-0.4	-2	-3.0	0.8%
CC1(c2nnc(-c3cccc(Cl)c3)o2)CC(c2cccc(F)c2)=NO1 (configuration not stated)	4	3	1.6	-14	-0.7	-0.2%
Cc1ccc(CNC(=O)c2oc3ccc(S(=O)(=O)N4CCOCC4)cc3c2C)cc1	-1	-14	6.6	10	-0.7	-0.6%[38.3 µM]
COc1ccc(CNC(=S)N/N=C/c2ccncc2)cc1	-6	2	0.2	-3	-2.5	2.2%
CCC1(CC)NC(=O)N(CC(=O)OCC(=O)NC(=O)c2ccccc2)C1=O	-2	3	-0.6	-6	-1.2	1.0%

Later entries.
canonical_smiles	Six1-Eya2 blk	CtBP-E1A inh	TRPML1 agonist	D2 potentiator	D2 ag	PINK1 modulator
CCN1CCN(S(=O)(=O)c2ccc(Oc3ccccc3OC)cc2)CC1	0	-14	0.2	-12	-3.9	0.3%
COc1ccc(C(CC(=O)O)NC(=O)COc2ccccc2)cc1 (configuration not stated)	-22	-10	-0.7	-9	-5.5	2.3%
O=C(NC1CC1)C1=C[C@@H](c2ccc3c(c2)OCO3)C[C@@H](OCc2ccc(CO)cc2)O1	-3	1	-0.8	-10	-2.2	0.7%
CCc1ccccc1N1C[C@@]23C=C[C@@H](O2)C(C(=O)OCC(C)C)[C@H]3C1=O (some centres not stated)	0	5	-0.2	-1	0.5	9.7%[38.3 µM]
Brc1ccc2nc3c(n2c1)CCCC3	-7	-3	-1.0	-3	-3.9	-2.7%
COC(=O)c1ccc(NC(=O)CN2CCN(c3ccc(Cl)cc3)CC2)cc1	0	-3	-0.2&-0.5	-7	-1.9	-1.6%&-1.3%
COc1ccc(CCNC(=O)COC(=O)c2cnc(C)cn2)cc1	-2	14	0.4	-6	-2.4	0.3%
C[C@@H](NC(=O)c1nc[nH]c1C(=O)N[C@H](C)c1ccccc1)c1ccccc1	-16	.	3.5	-5	1.5	4.3%
CCN1C[C@@H]2[C@@H]3C(=O)N(Cc4ccccc4)C(=O)[C@@H]3[C@](Cc3ccccc3)(C(=O)OC)N2C1=NC	-1	4	1.0	-5	-0.5	-0.9%
COc1ccc(CN2CCn3nc(C(=O)NC(C)C)cc3C2=O)cc1	4	3	-0.1	-5	-3.8	-1.9%
COC(=O)c1[nH]c2cc(C)ccc2c1NC(=O)CN1CCc2cc(OC)c(OC)cc2C1	-3	-15	0.9	-45	-2.5	0.5%
O=C(CSc1ncnc2[nH]ncc12)Nc1cccc(Oc2ccccc2)c1	-22	-22	-0.5	-1	-1.3	2.1%
CCN(C(=O)COC(=O)CCCN1C(=O)c2cccc3cccc(c23)C1=O)C1CCS(=O)(=O)C1 (configuration not stated)	-9	0	0.3	-17	-3.4	-1.3%
Cc1cc(=O)oc(C)c1C(=O)Nc1cccc2ccccc12	1	2	-0.4	-1	-1.4	-0.2%
Cc1cc(C)n2nc(SCC(=O)Nc3c(C)nn(-c4ccccc4)c3C)nc2n1	-3	-4	0.0	2	-0.9	-2.7%
CC(=O)/C=C(\C)Nc1c(C)n(C)n(-c2ccccc2)c1=O	1	2	0.9	-46	-5.4	0.0%
COc1ccccc1C(=O)NC(=O)Nc1nc(-c2ccccc2)cc(C(F)(F)F)n1	-1	2	0.4	-5	-2.2	5.1%
CC(=O)c1ccccc1C(=O)N(C)C1CCCN(Cc2ccccc2F)C1 (configuration not stated)	10	-13	0.3	-6	1.1	-2.4%
COc1ccc(NC(=O)COC(=O)C2CC(=O)N(c3ccc(OC(C)C)cc3)C2)cc1 (configuration not stated)	13	-6	0.9	6	4.2	1.3%
CC(C)/C=C/C(=O)N1CCC(N2CCC(C(=O)NCc3ccccn3)CC2)CC1	5	.	0.7	-7	2.7	0.3%
CC(C)c1ccc(NC(=O)NC2CCN(CC(=O)Nc3cccc4ccccc34)CC2)cc1	5	1	0.1	-8	-1.4	6.0%
COC(=O)C(C(=O)Nc1ncccn1)C1CCCCCC1 (configuration not stated)	2	6	0.7	15	-1.7	-0.5%
C=Cn1cc[n+](CC(=O)c2ccc(Cl)c(Cl)c2)c1	1	-1	0.2	-4	0.3	0.3%
CCN1C(=O)N[C@@H](c2ccco2)C(C(=O)OC)=C1C	4	.	0.5	-16	-4.3	1.3%
O=C(CSc1nc2ccccc2c(=O)n1CC1CCCO1)NCc1ccc2c(c1)OCO2 (configuration not stated)	3	-18	-0.6	-2	-3.0	2.8%
COc1ccccc1CNC(=O)COc1cccc(-n2cnnn2)c1	0	-2	-1.3	18	2.8	0.1%
CC(C)Sc1nnc(SCC(=O)N(C)C2CCS(=O)(=O)C2)s1 (configuration not stated)	4	1	0.2	-3	-0.8	-0.8%
COCCCn1c(SCC(=O)N2CCc3ccccc32)nnc1-c1ccoc1C	-19	-14	0.9	-10	-4.9	-1.9%
COc1c2ccc(C(=O)NCc3cc(C(F)(F)F)cc(C(F)(F)F)c3)cc2nn1C	-4	-1	0.2	-9	0.2	3.5%
CCOc1cc(C(=S)N2CCOCC2)ccc1OS(=O)(=O)c1ccccc1[N+](=O)[O-]	-4	.	1.2	-6	2.7	0.3%

At a glance, 2 of the compounds above.
canonical_smiles	Six1-Eya2 blk	CtBP-E1A inh	TRPML1 agonist	D2 potentiator	D2 ag	PINK1 modulator
COc1ccc(-c2nnc(C3CCN(S(=O)(=O)c4ccccc4)CC3)o2)cc1	0	1	0.5	-2	-2.4	4.7%
Cc1ccc(N(C(=O)c2cccs2)C2C=CS(=O)(=O)C2)cc1 (configuration not stated)	3	4	-0.5	-3	-7.4	1.8%

The results go on.
canonical_smiles	Six1-Eya2 blk	CtBP-E1A inh	TRPML1 agonist	D2 potentiator	D2 ag	PINK1 modulator
O=C(c1cc2ccccc2o1)N1CCN(S(=O)(=O)c2c(F)cccc2F)CC1	-5	.	-0.1	1	-1.3	0.6%
COc1cc(NC(=NS(=O)(=O)c2ccccc2)c2ccccc2)ncn1	8	1	-0.3	-11	2.2	-0.5%
O=C(Cn1c(=O)oc2cccnc21)Nc1ccc(C(F)(F)F)cc1	2	-8	0.3	-10	1.1	2.4%
CC(=O)c1ccc(OC(C)C)c(CN2CCCCC2)c1	23	90	-0.3	-6	-1.8	1.3%[38.3 µM]
COc1cc(/C=N/NC(=O)CN(Cc2ccccc2)S(=O)(=O)c2ccc3c(c2)OCCO3)ccc1O	-82*	-14	2.2	-27	-2.9	5.4%
CCN(CC)S(=O)(=O)c1ccc(NC(=O)CSc2nnc(-c3ccc(F)cc3)o2)cc1	3	-4	1.7	7	1.2	1.7%[38.3 µM]
CC(NC(=O)c1cnccn1)c1ccc(S(N)(=O)=O)cc1 (configuration not stated)	3	2	.	-1	-2.6	0.2%
Cc1ccc(N(CC(=O)NC(C)(C)C)C(=O)CS(=O)CC(=O)Nc2ccc(F)cc2)cc1 (configuration not stated)	2	12	0.1	-10	-1.3	0.1%
CCOC(=O)c1cnc2c(Cl)cccc2c1NCCN(C)C	-2	-6	0.6	-27	-1.8	-1.2%
O=C(c1cnc2n(c1=O)CCS2)N1CCN(c2ccccc2F)CC1	6	6	0.0	-3	-7.8	3.8%
CCN(CC1COc2ccccc2O1)C(=O)CN1C(=O)NC(C)(c2ccc(C)cc2)C1=O (configuration not stated)	-7	1	-0.1	4	-2.5	0.5%
O=C(CSc1nc2ccccc2c(=O)n1NC(=O)c1ccccc1)c1ccc(Cl)cc1	-26	-26	-0.5	-9	-3.2	-4.0%
CCCS(=O)(=O)N1CCN(C(=O)c2ccco2)CC1	-3	1	-0.7	-5	-3.2	1.7%
